# D2 ag: activates the human D2 dopamine receptor | DiscoveRx PathHunter D2 beta-arrestin, luminescence, 90 min; 100% = 57 uM dopamine signal | 360,000 tested, 0.084% active | AID 624465 | activation, % (test concentration not listed) | P14416; in the data active = activation above about 40%; inconclusive = about 15% to 40%; inactive = below about 15%; also: compound concentration not given in the record; the text of the record calls up to 30% inactive
#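 DiscoveRx PathHunter D2 beta-arrestin cells (2,100/well) attached overnight, then compound-stimulated 90 min at 37 C in HBSS/10 mM HEPES/0.1% Tween-20 buffer; beta-galactosidase complementation read by luminescence after 1 h at ambient temperature. Dopamine 57 uM final (EC100) as control.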
# Six1-Eya2 blk: Six1/Eya2 interaction inhibition; Q15475+O00167; AlphaScreen GST-Six1/His-Eya2 binding, biochemical; stronger effect = lower value; control for the full effect not named in the record; activity change, % (no concentration beside the values); 360,000 tested, 0.56% active; AID 651725; in the data active = activity change below about -65%; inconclusive = about -30% to -65%; inactive = above about -30%; also: % is scaled to controls: 0 for no effect and ±100 for the full control effect; compound concentration not given in the record
# Target sequence (O00167 whole entry, looked up): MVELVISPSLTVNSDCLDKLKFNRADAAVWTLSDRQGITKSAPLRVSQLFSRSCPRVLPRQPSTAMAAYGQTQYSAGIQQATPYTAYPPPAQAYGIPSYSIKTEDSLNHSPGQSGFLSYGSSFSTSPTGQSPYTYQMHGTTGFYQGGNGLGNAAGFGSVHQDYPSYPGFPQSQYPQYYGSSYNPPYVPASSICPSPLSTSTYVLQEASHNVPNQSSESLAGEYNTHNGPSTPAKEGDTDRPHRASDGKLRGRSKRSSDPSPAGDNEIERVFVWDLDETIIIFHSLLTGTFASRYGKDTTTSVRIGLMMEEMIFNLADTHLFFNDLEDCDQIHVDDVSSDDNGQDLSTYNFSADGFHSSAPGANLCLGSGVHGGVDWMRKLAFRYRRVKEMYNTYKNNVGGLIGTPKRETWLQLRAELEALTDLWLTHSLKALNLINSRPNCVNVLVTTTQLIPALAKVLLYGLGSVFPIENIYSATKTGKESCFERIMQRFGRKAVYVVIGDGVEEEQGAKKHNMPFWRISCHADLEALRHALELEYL
# Target sequence (Q15475 whole entry, looked up): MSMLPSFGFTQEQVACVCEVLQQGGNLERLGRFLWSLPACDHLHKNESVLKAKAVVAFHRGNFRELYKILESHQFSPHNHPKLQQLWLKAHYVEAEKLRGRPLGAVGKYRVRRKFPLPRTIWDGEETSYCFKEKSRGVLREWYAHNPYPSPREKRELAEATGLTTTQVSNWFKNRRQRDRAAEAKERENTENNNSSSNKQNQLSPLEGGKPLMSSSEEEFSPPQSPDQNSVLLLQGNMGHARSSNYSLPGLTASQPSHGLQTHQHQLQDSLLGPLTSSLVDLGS
#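 Homogeneous AlphaScreen proximity assay pairing GST-Six1 with His-tagged Eya2 (added as 5X mix: 250 nM and 500 nM) in 50 mM Tris pH 8.0, 300 mM NaCl, 1 mM TCEP. Glutathione donor and nickel acceptor beads; 1 h, 37 °C, dark.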
# TRPML1 blocker: inhibitors of human TRPML1 channel; 390,000 tested, 0.02% active; TRPML1-inducible cells, Ca2+ dye fluorescence, FDSS; stronger effect = lower value; inhibition of EC80 agonist-evoked calcium signal; activity change, negative = inhibition, % (test concentration not listed); AID 624415; Q9GZU1; in the data active means activity change below about -50%; inconclusive means about -30% to -50%; inactive means above about -30%;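 also: stimulus is agonist 54-4 at its EC80 concentration; % is scaled to controls: 0 for no effect and ±100 for the full control effect; compound concentration not given in the record; the text of the record puts the active cut at -80%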
#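 Tet-induced TRPML1-DL cells loaded with Ca8 no-wash calcium dye were read kinetically on FDSS. Compound addition was followed by EC80 agonist 54-4 (4 uM final); inhibition was read over 110 s.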
# PINK1 modulator: modulators of PINK1 expression; PINK1 immunofluorescence, high-content cytometry, 24 h; Potency, µM (titrated, usually from 76.6 µM), without a hit: top-dose activation (PINK1 increase), usual class: activators; 410,000 tested, 0.2% active; active = well fitted activation curve with a large enough effect; inconclusive = small, poorly fitted or top-dose-only effect; inactive = flat fitted curve, though single readings scatter; cell line not stated here;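 also: potency is read from the fitted curve at half-maximal effect; % of control where 0% means no effect; nearly all actives have a fitted effect of over 65% in size; a mitochondrial uncoupler was the plate control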
#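 PINK1 protein, normally rapidly degraded, was detected by immunofluorescence after 24 hour compound treatment of a stable cell line. Titration data (5 concentrations) came from laser-scanning cytometry, with CCCP-treated wells as controls.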
# D2 potentiator: positive allosteric modulators of human D2 dopamine receptor; P14416; DiscoveRx D2 beta-arrestin cells, luminescence, 90 min; 100% = 57 uM dopamine signal; potentiation, % (no concentration beside the values); 360,000 tested, 0.23% active; AID 624464; active = potentiation of 50% or more; inconclusive = 30% to 50%; inactive = 30% or less;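 also: compound concentration not given in the record; tested on top of an EC20 dose of dopamine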
#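 PathHunter beta-arrestin assay in DiscoveRx D2 cells. Compounds were added with an EC20 of dopamine (50 nM final) for 90 min at 37 deg C. Luminescence was read 1 h after detection reagent, with 57 uM dopamine as the EC100 control.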
# TRPML1 agonist: activates the human TRPML1 channel | TRPML1-expressing cells, Ca2+ dye fluorescence, FDSS; host cell line not named in the record; reference of the full effect not given here | activation, % (concentration not given with the values) | AID 624414 | 410,000 tested, 0.12% active; in the data active = activation above about 50%; inconclusive = about 30% to 50%; inactive = below about 30%; also: 0% is about no effect; the text of the record puts the active cut at 80%
#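 Agonist activity was taken from a 110 s kinetic Ca2+ dye read on the FDSS after pinning compounds onto TRPML1-DL cells. The cells were seeded at 1,500/well with Tet inducer, incubated about 16 h, then dye-loaded at room temperature.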
# * = called active by the depositor; ? = inconclusive; · = no result given; & = joins results of further samples; [ ] = another dose, or the depositor's remark.
# Sample of the layout, two compounds:
SMILES,D2 ag,Six1-Eya2 blk,TRPML1 blocker,PINK1 modulator,D2 potentiator,TRPML1 agonist
COc1cccc(CNc2nc(NCC3CC3)nc3ccsc23)c1OC,-5.7,-10.3,8.7,?,-26.0,-0.5
CC1(C)Cc2nc3sc4c(=O)n(CC(=O)NCc5ccccc5)cnc4c3cc2CO1,-2.2,-2.8,2.6,?,-6.2,-0.7

# This part in full, from the start:
SMILES,D2 ag,Six1-Eya2 blk,TRPML1 blocker,PINK1 modulator,D2 potentiator,TRPML1 agonist
COc1cccc(CNc2nc(NCC3CC3)nc3ccsc23)c1OC,-5.7,-10.3,8.7,?,-26.0,-0.5
CC1(C)Cc2nc3sc4c(=O)n(CC(=O)NCc5ccccc5)cnc4c3cc2CO1,-2.2,-2.8,2.6,?,-6.2,-0.7
O=C1CSC(c2cccc([N+](=O)[O-])c2)N1c1ccccc1 (configuration not stated),2.7,3.3,4.8,-0.9%,1.1,2.2
CCCN(CCC)C(=O)NC1CC(=O)N(c2ccc(OC)cc2)C1 (configuration not stated),-2.2,3.6,57.9,1.4%,-8.8,0.1
CCC(C)n1c(SCC(=O)Nc2ccccc2C(F)(F)F)nc2ccsc2c1=O (configuration not stated),-2.8,-2.2,7.4,?,-4.8,-0.3
COc1cc(NC(=O)NCC2CCN(Cc3ccccc3F)CC2)cc(OC)c1,-1.7,-4.9,7.4,0.5%,-22.3,0.9
O=C(NCc1cccs1)c1ccccc1C(=O)NCc1cccs1,-1.1,27.7,4.3,-2.4%,-6.6,0.0
N/C(=N\OC(=O)CCc1ccccc1)c1ccccc1Cl,1.7,16.1,18.4,-0.8%,10.6,3.8
COc1ccc2nc(SCC(=O)NCC3CCCO3)c(C#N)cc2c1 (configuration not stated),-1.0,-2.0,-4.8,7.9%,-0.8,0.1
Cc1ccc(OCc2nnc(SCC(=O)Nc3sc(C)c(C)c3C#N)n2C)cc1,-2.6,7.8,-5.0,4.6%,-2.6,-0.7
CC(C)(C)SCCNS(=O)(=O)c1ccc2ccccc2c1,-1.6,3.1,0.2,0.4%[38.3 µM],-8.1,0.1
Cn1c(=O)[nH]c(=O)c2c1nc(Br)n2CC(O)COCc1ccccc1 (configuration not stated),-2.2,7.0,-10.0,-0.7%,-6.9,1.4
Cc1ccc(NS(=O)(=O)c2cccc(C(=O)N3CCN(c4ncccn4)CC3)c2)cc1,3.6,0.7,17.1,0.8%,12.3,2.4
COC(=O)C1=C(C(=O)OC)[C@@H]2Nc3ccccc3[C@@]23C[C@@H](C(=O)OC)N(C(=O)c2cc(C)oc2C)C3=N1,-0.8,-5.3,-2.4,0.3%,-3.4,1.6
CCCn1nc(Oc2nc(SC)nc(N(C)C)n2)ccc1=O,-1.3,-2.2,1.4,-0.9%,-15.8,-0.1
CCOC(=O)N1CCN(CC(=O)Nc2ccc(Oc3ccccc3)cc2)CC1,44.1*,-7.0,-16.1,0.7%,22.4,2.0
Clc1cccc(Cl)c1CNc1ccc(N2CCCC2)cc1,-1.3,?,22.9,15.8%,-5.2,1.9
CCCCn1c(N)c(N(CCOC)C(=O)c2cc(-c3ccc(OC)cc3)nc3ccccc23)c(=O)[nH]c1=O,7.3,2.6,12.6,1.8%,4.3,1.2
C=CCN(CC=C)Cc1c(C)[nH]c2ccc(C(=O)OCC)cc2c1=O,-1.8,-1.9,15.1,-3.9%[38.3 µM],-18.8,-0.1
CCC(CC)c1nnc(NC(=O)c2cc([N+](=O)[O-])ccc2N2CCCCC2)s1,0.3,3.3,0.8,1.8%,-8.7,-0.7
O=C(CSc1nnc2ccc(-c3ccccn3)nn12)NCC1CCCO1 (configuration not stated),-3.2,6.8,·,-0.4%,-6.6,·
CCCCc1nnc(NC(=O)CN2C(=O)NC3(CCCCC3)C2=O)s1,-5.5,6.1,2.1,-0.9%,-18.7,0.8
CCOC(=O)CCCNC(=O)COC(=O)c1cccc(F)c1,4.1,-16.0,14.9,0.2%,-35.6,-0.1
CN(C)S(=O)(=O)c1ccc(C(=O)NNc2nc(-c3ccccc3)c3cc(Br)ccc3n2)cc1,-2.4,?,-1.9,17.1%,9.5,2.2
COC(=O)C1=C(C)NC(C)=C(C(=O)OC(C)C)C1c1cccc2nonc12 (configuration not stated),2.4,-1.8,0.4,1.9%,0.1,1.7

# Later entries.
SMILES,D2 ag,Six1-Eya2 blk,TRPML1 blocker,PINK1 modulator,D2 potentiator,TRPML1 agonist
CN(C)Cc1csc(Nc2ccc(C(=O)c3ccccc3)cc2)n1,-2.1,-8.7,·,3.8%,-6.8,-0.4
O=C(Nc1ccccc1)c1cc2c(=O)c3ccccc3oc2nc1C(F)(F)F,-2.7,-1.5,-6.1,0.3%,-3.4,-1.0
CSc1ccccc1NC(=O)C1CC(c2ccccc2O)=NO1 (configuration not stated),0.1,-0.9,-1.8,·,2.3,0.0
O=C(c1ccccc1)N1CCN(S(=O)(=O)c2cccs2)CC1,-7.1,-13.8,-14.3,-1.0%,-8.7,0.5
O=C(COC(=O)Cc1ccc(S(=O)(=O)N2CCOCC2)s1)Nc1ccccc1Cl,0.6,-1.2,-1.0,5.9%,27.9,0.8
Cc1cc(C(=O)N2CCN(c3ccccc3)CC2)c(C)o1,-1.0,-8.1,-19.1,-1.7%[38.3 µM],5.4,0.4
CCCc1cc(C(=O)N2CCC(n3nccc3NC(=O)c3ccc(OC)cc3)CC2)no1,2.5,-0.1,-26.6,1.1%,-4.3,0.5
CCCN(CCC)S(=O)(=O)c1ccc2c(c1)N(CC(=O)NC(C)c1ccccc1)C(=O)CS2 (configuration not stated),·,·,14.3,-1.5%,·,1.8
COc1ccc(S(=O)(=O)n2[nH]c(=O)c(CCO)c2C)c([N+](=O)[O-])c1,2.7,8.0,-20.3,-1.0%,-1.4,-0.3
C/C(=N\NC(=O)CN1CCN(Cc2ccc(C)cc2)CC1)c1ccncc1,-1.4,3.2,-5.0,-2.8%,-25.2,0.0
CC(C)OC(=O)N(C)C[C@@H]1OCc2cnnn2CCCC(=O)N([C@H](C)CO)C[C@H]1C,-6.9,-1.8,15.5,1.6%,-2.9,-0.7
CC(C)(C)c1ccc(/C=N/n2cnnc2)cc1,-0.7,2.8,1.1,0.8%,1.2,-0.5
O=C(O)CNCC1COc2ccccc2O1 (configuration not stated),-3.0,0.5,-8.0,-1.0%,5.8,2.2
COc1ccc2[nH]c(=O)c(CNc3cc(C)ccc3C)cc2c1,1.8,15.5,29.4,-1.7%,4.5,4.5
Cc1cc(C)cc(N(CC(=O)NCC2CCCO2)S(=O)(=O)c2c(C)noc2C)c1 (configuration not stated),-5.6,-1.3,-2.6,1.2%,0.4,-0.1
COc1ccc(-c2cc(C(=O)N(C)CC(=O)Nc3ccccc3Br)c3ccccc3n2)cc1OC,0.5,6.5,10.7,-3.8%,-67.5,2.6
Cc1ccc(-n2c3c(cc(C(=O)NC4CCSC4=O)c2=O)C(=O)CCC3)cc1 (configuration not stated),0.1,-2.1,6.2,-1.4%,23.4,0.5
CCCCc1c(C)[nH]c2nc3ccccc3n2c1=O,-3.8,-10.9,1.9,0.9%,-29.6,0.5
CCC(Sc1nc(-c2ccccc2)c(C#N)c(=O)[nH]1)C(=O)Nc1cc(C)on1 (configuration not stated),0.2,-20.5,-8.1,-5.5%[38.3 µM],-4.6,-0.1
COc1ccc(NC(=O)CCNS(=O)(=O)c2cccc3nsnc23)cc1Cl,·,·,-6.2,-0.5%,·,-0.3
COc1ccc(OC)c(C2CC(=O)N3CN(c4ccccc4F)CSC3=C2C#N)c1 (configuration not stated),-2.8,-1.1,-11.7,1.5%,-5.0,-0.8
Nc1nonc1C(=O)N1CCCC1,1.2,9.0,4.7,2.5%,-3.8,-0.5
Cc1ccc(/C=C2\Sc3ccccc3C2=O)s1,4.9,-28.4,6.2,13.9%,?,2.3
CC1(c2ccc3noc(-c4ccc(F)cc4)c3c2)OCCO1,?,-0.7,10.6,1.6%,60.5*,-0.4
CC1CCc2c(sc(NC(=O)C3c4ccccc4Oc4ccccc43)c2C#N)C1 (configuration not stated),·,·,-14.5,-0.7%,·,0.9

# Continuation.
SMILES,D2 ag,Six1-Eya2 blk,TRPML1 blocker,PINK1 modulator,D2 potentiator,TRPML1 agonist
COc1ccc([C@H]2C[C@H](O)[C@@H](n3cc(COC(=O)c4ccccc4)nn3)CN2C(=O)C2CCCCC2)cc1,0.8,-1.0,·,-0.2%,·,·
COC(=O)c1ccccc1NC(=O)c1nc(-c2ccc(Cl)cc2)n2c1CCCCC2,·,·,-15.0,2.3%,·,-0.7
CCN(CC(=O)NCc1ccc(Cl)cc1)C(=O)CSc1cccc(C(F)(F)F)c1,-4.2,4.6,-5.3,3.5%,-40.9,-0.4
Cc1ccc(Nc2n[nH]c(C)c2[N+](=O)[O-])c(C)c1,-2.8,-13.6,1.2,-1.0%,-5.9,1.5
CCOc1ccc(N/C(C)=C\C(=O)c2ccc3c(c2)OCCO3)cc1,2.6,-12.7,5.5,5.6%,-27.5,0.7
O=C(NC12CC3CC(CC(C3)C1)C2)N1CCCC(CO)C1 (configuration not stated),-0.7,14.1,1.3,-1.8%,4.4,-0.4
O=C(Nc1ccc(OCc2ccccc2)cc1)Nc1cccnc1,-1.8,-6.6,10.2,0.7%,-2.7,3.1
CC(=O)NC(C)C(=O)OCC(=O)Nc1ccc(Br)cc1 (configuration not stated),1.3,7.4,-8.9,3.0%,-3.5,-0.3
Cc1ccc(CN(C(=O)COc2cc(C)c(Cl)c(C)c2)c2ccccn2)o1,·,·,46.3,0.2%,·,2.5
COc1ccc(CNC(=O)C[C@H]2C(=O)N(Cc3ccc(OC)cc3)C[C@@H]2Cc2ccccc2)cc1,-7.9,0.6,11.8,-0.9%,-11.6,0.6&-0.6
CCSC1=NCCN1C(=O)C(C)(C)Oc1ccc(Cl)cc1,7.9,6.5,13.0,6.8%,5.4,2.5
CCOC(=O)C1C(=O)CC(=O)C(C(=O)OCC)C1c1ccc(O)cc1 (configuration not stated),-2.6,0.9,-9.6,1.5%,-6.1,0.0
O=C(CNc1ccc(Cl)cc1)NNC(=S)NCc1ccccc1,0.1,2.2,-11.6,1.0%,-0.7,-0.4
COC(=O)c1ccc2c(c1)C(C)(C)C(/C=C/c1ccccc1O)=[N+]2C,-10.8,-7.1,7.8,-5.3%[38.3 µM],-21.8,16.0
Cc1ccc(S(=O)(=O)N/N=C\c2ccc(C)o2)cc1,-1.6,-6.7,0.0,6.1%[38.3 µM],-12.3,0.5
Cc1ccc(S(=O)(=O)N2CCCCC2)cc1NC(=O)CNc1ccccc1N1CCCC1=O,0.5,-2.9,-10.6,2.5%,14.4,-0.9
CC(C(=O)N1CCN(C=O)CC1)N1C(=O)c2ccccc2C1=O (configuration not stated),-1.3,10.4,-8.6,0.6%,-2.2,-0.9
O=C(COc1ccc(Br)cc1)N1CCN(c2ccccc2)CC1,-1.1,-7.5,11.0,-0.6%,14.9,-1.0
Cc1c(C(=O)NCCN2CCOC2=O)oc2c(F)cccc12,3.5,3.2,15.3,2.2%,-13.0,1.2
Cc1ccc(CN2CC(C(=O)Nc3ccc(C)cn3)CC2=O)cc1 (configuration not stated),-1.1,0.3,-18.0,1.2%,-1.0,2.0
CC(=O)NC(c1ccco1)c1ccc2cccnc2c1O (configuration not stated),-4.7,-92.6*,-6.8,-0.4%,0.1,-0.4
